Cruzain noTriton: inhibitors of Trypanosoma cruzi cruzain without detergent; purified cruzain, Z-FR-AMC fluorescence, no detergent; actives 2.3% (n = 200,000); Potency, µM, for inactives: max response, negative = inhibition, most hits filed as inhibitors; active = well fitted curve in the direction sought with a large enough effect; inconclusive = small, poorly fitted or top-dose-only effect, or another doubt; inactive = no such curve, though single readings can be large; an effect the other way counts as inactive or inconclusive;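 note: plate controls were enzyme without inhibitor for no effect and buffer without enzyme for full effect; nearly all actives have a fitted effect of over 40% in size; top concentration of the series not given in the record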
Target sequence (P25779 123-467 limits assumed): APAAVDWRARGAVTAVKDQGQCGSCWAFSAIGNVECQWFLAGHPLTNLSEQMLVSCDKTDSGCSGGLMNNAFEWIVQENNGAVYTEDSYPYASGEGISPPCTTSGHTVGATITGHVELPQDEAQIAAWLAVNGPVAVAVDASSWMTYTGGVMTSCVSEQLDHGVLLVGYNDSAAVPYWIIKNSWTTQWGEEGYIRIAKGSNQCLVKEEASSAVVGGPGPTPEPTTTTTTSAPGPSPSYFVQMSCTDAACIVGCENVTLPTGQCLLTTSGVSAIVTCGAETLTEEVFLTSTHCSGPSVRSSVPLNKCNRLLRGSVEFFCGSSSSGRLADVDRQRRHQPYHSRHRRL
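Purified cruzain at 1.5 nM, pre-incubated 15 min with compound at room temperature in 100 mM sodium acetate pH 5.5, 5 mM DTT, 0.00005% Triton X-100. Reaction started with 2 uM Z-FR-AMC; AMC fluorescence increase over 60 s gives rate.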
Marburg entry inh: blocks Marburg virus binding to or entry into cells; Marburg virus pseudotyped entry inhibition, cell reporter; control for the full effect not named in the record; about a third of the inactives were read at about 46 µM; Potency, µM (highest dose often 37.8 µM), for inactives: at the top dose activity change, negative = inhibition, most hits filed as inhibitors; AID 540276; actives 1.8% (n = 300,000); active = well fitted inhibition curve with a large enough effect; inconclusive = small, poorly fitted or top-dose-only effect, or effect the other way; inactive = flat fitted curve, though single readings scatter; tested in HEK293 cells; about a fifth of its hits are not listed in these tables; note: % is set by controls: 0 for no effect and ±100 for the full control effect; luciferase read-out
Cruzain inh Det: inhibitors of Trypanosoma cruzi cruzain with detergent; P25779; AID 1478; purified cruzain, Z-FR-AMC fluorescence, 0.01% Triton; actives 0.43% (n = 200,000); Potency, µM, for the others: max response, negative = inhibition, actives largely listed as inhibitors; active = well fitted curve in the direction sought with a large enough effect; inconclusive = small, poorly fitted or top-dose-only effect, or another doubt; inactive = no such curve, though single readings can be large; an effect the other way counts as inactive or inconclusive;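 note: plate controls were neutral wells for no effect and buffer without enzyme for full effect; nearly all actives have a fitted effect of over 40% in size; top concentration of the series not given in the record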
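In this qHTS format, compounds are incubated with 1.5 nM cruzain for 15 min at room temperature before 2 uM Z-FR-AMC is added. Release of AMC is followed at 360/450 nm, and progress is taken as the 60 s fluorescence difference.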
SARS PLP yeast: blocks SARS-CoV papain-like protease in a yeast assay. S. cerevisiae expressing SARS-CoV PLpro, growth rescue; control for the full effect not named in the record. Potency, µM (titrated, usually from 32.9 µM), inactives show at the highest dose activity, positive = growth rescue. actives 0.19% (n = 330,000). AID 485353; note: 0% is about no effect; nearly all actives have a fitted effect of over 55% in size; growth read by luminescence after 48 h
Lassa entry inh: blocks Lassa virus binding to or entry into cells; Lassa virus pseudotype entry inhibition, cell reporter; control for the full effect not named in the record; Potency, µM (series often up to 37.9 µM), for inactives: at the top dose activity change, negative = inhibition, actives largely listed as inhibitors; actives 1.2% (n = 300,000); AID 540256; active means well fitted inhibition curve with a large enough effect; inconclusive means small, poorly fitted or top-dose-only effect, or effect the other way; inactive means flat fitted curve, though single readings scatter; tested in HEK293 cells; note: % is set by controls: 0 for no effect and ±100 for the full control effect; nearly all actives have a fitted effect of over 50% in size; luciferase read-out
NS1 function inh: inhibitors of influenza NS1 protein function | actives 0.4% (n = 270,000) | Potency, µM (titrated, usually from 46.1 µM), for the others: at the top dose activity, positive = more growth | S. cerevisiae slowed by influenza A NS1, growth recovery by OD600; note: actives are rising curves; nearly all actives have a fitted effect of over 50% in size
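OD600 was taken as the measure of yeast growth restored by compound in an NS1-expressing S. cerevisiae strain. Cells had been washed out of glucose medium and diluted 1:100 into galactose -URA medium, pH 6.0.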
RE007 growth inh: less growth of the S. pombe RE007 Vpr strain; Potency, µM (highest dose often 92.2 µM), inactives show top-dose activity change, negative = less growth; S. pombe RE007 Vpr strain, BacTiter-Glo ATP luminescence, 24 h; control for the full effect not named in the record; actives 0.21% (n = 360,000); AID 651644; active = well fitted falling curve with a large enough effect; inconclusive = small, poorly fitted or top-dose-only effect; inactive = no such curve, though single readings can be large or run the other way;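 note: % is set by controls: 0 for no effect and ±100 for the full control effect; nearly all actives have a fitted effect of over 50% in size; the assay follows cell death caused by Vpr and the record does not say whether a fall means rescue or toxicity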
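Fission yeast RE007 carrying one integrated HIV-1 vpr copy, seeded at OD 0.01 in PMG+AL medium with 23 nL pinned compound. Grown 24 h at 30 degrees; viability read by BacTiter-Glo luminescence after 5 min.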
StopGo reporter: lowers the luciferase signal of an FMDV 2A StopGo reporter. human cells with a luciferase reporter of 2A StopGo recoding; control for the full effect not named in the record. actives 1.2% (n = 410,000). AID 1159524. Potency, µM (top dose mostly 57.9 µM), for inactives: at the top dose signal change, negative = less light; active = well fitted falling curve with a large enough effect; inconclusive = small, poorly fitted or top-dose-only effect; inactive = no such curve, though single readings can be large or run the other way; tested in HEK293T cells; note: % is set by controls: 0 for no effect and ±100 for the full control effect; nearly all actives have a fitted effect of over 45% in size; luciferase light after 4 h
* hit, by the source's call; ? = inconclusive; / = not tested or not shown; & = joins results of further samples; [ ] = another dose, or the depositor's remark. Unless noted, calls come from the whole dose curve; as a rule, active means well fitted rising curve with a large enough effect; inconclusive means small, poorly fitted or top-dose-only effect; inactive means no such curve, though single readings can be large or run the other way. Potency is the fitted concentration of half-maximal effect.

The first 2 entries, ahead of the listing:
| canonical_smiles | Marburg entry inh | RE007 growth inh | Lassa entry inh | NS1 function inh | StopGo reporter | Cruzain noTriton | SARS PLP yeast | Cruzain inh Det |
| --- | --- | --- | --- | --- | --- | --- | --- | --- |
| Cc1ccc(C(=O)NCCC2=CCCCC2)cc1S(=O)(=O)N1CCOCC1 | ? | -22% | -4%[46.1 µM] | / | 18% | / | -3% | / |
| Cc1cc(S(=O)(=O)N2CCCCC2)ccc1OCC(=O)Nc1ccccc1 | -29% | -4% | -5% | -20% | ? | / | 8% | / |

The whole of this part, from the start:
| canonical_smiles | Marburg entry inh | RE007 growth inh | Lassa entry inh | NS1 function inh | StopGo reporter | Cruzain noTriton | SARS PLP yeast | Cruzain inh Det |
| --- | --- | --- | --- | --- | --- | --- | --- | --- |
| Cc1ccc(C(=O)NCCC2=CCCCC2)cc1S(=O)(=O)N1CCOCC1 | ? | -22% | -4%[46.1 µM] | / | 18% | / | -3% | / |
| Cc1cc(S(=O)(=O)N2CCCCC2)ccc1OCC(=O)Nc1ccccc1 | -29% | -4% | -5% | -20% | ? | / | 8% | / |
| NC(=O)N/N=C/c1ccccc1OC(=O)c1ccccc1Br | 0%[46.1 µM] | 38% | ? | -6% | -8% | / | -1% | / |
| CCCc1nc(SCC(=O)NC2CCCC2)c2ccccc2n1 | -9%[46.1 µM] | 1% | -2% | -11% | -27% | / | -4% | / |
| Cc1ccc(NC(=O)C2C3C=CC(O3)C2C(=O)O)c(C)c1 (stereo not drawn) | 7%[46.1 µM] | -18% | 11%[46.1 µM] | 0% | 1% | / | -25% | / |
| O=C(O)c1ccc(NN=CC2=C(N3CCOCC3)/C(=C/c3ccccc3)CC2)cc1 | 10% | 35µM* | -16% | / | -10% | / | / | / |
| NS(=O)(=O)c1ccc(N=Nc2c[nH]c(=O)c(O)c2)cc1 | 6%[46.1 µM] | -20% | -3% | 3%&8% | -8% | -4% | 9% | -1.3% |
| CCOc1ccc(CCNCc2c(C(=O)O)c(C)n(Cc3ccccc3F)c2C)cc1 | 11%[46.1 µM] | / | 0%[46.1 µM] | / | -16% | 3% | / | -3.0% |
| CCOc1cccc2cc(C(=O)NCc3ccccc3Cl)c(=O)oc12 | / | 15% | / | 25% | 45%[activator] | / | 12% | / |
| CC(=O)Nc1ccc(NC(=O)c2c(C)c(-c3ccccc3)nc3ccccc23)cc1 | -2% | 6% | -5% | / | -2% | / | / | / |
| C=CCn1c(SCC(=O)NC2CC2)nnc1C1CC1 | / | 5% | / | 13% | -2% | / | -1% | / |
| O=C(CCc1ccccc1)Nc1ccc2c(c1)OCCO2 | ? | 18% | -27% | -11% | 3% | 4% | 6% | 2.4% |
| O=C(Nc1cc(Sc2nc3ccccc3s2)cc([N+](=O)[O-])c1)c1ccccc1 | ? | 38% | -17% | 14% | ? | ? | 13% | -5.0% |
| CC1(C)CCC(=O)N2CC[C@H]3C[C@H](OC(=O)Nc4ccc(Br)cc4)C[C@@H]1[C@H]32 | / | 1% | / | 6% | 13% | / | 2% | / |
| Cc1oc2ncn(CC(C)C)c(=O)c2c1C(=O)NCCCN1CCCCC1 | / | / | ? | / | 1% | -18% | / | -0.7% |
| CCOC(=O)c1ccccc1NC(=O)Cn1cnc2c(cnn2-c2ccc(F)cc2)c1=O | 1% | -1% | 0% | 1% | 2% | -1% | 1% | 1.4% |
| CC(C)c1ccc(NC(=O)CN(C)S(=O)(=O)c2ccc3c(c2)c(=O)n(C)c(=O)n3C)cc1 | 24%[46.1 µM] | / | 0%[46.1 µM] | / | -24% | ? | / | 2.2% |
| CCOC(=O)c1cc(C)nc(SC)c1C#N | -2%[46.1 µM] | -37% | 13%[46.1 µM] | -31% | 9% | / | 0% | / |
| COc1ccc(OC)c(CNC(=O)CCCn2ccc3cc(S(=O)(=O)N4CCCC4)ccc32)c1 | / | -4% | -30%[46.1 µM] | 10% | ? | 30% | 5% | -4.4% |
| O=C(N/N=C/c1cccc(O)c1)C(=O)N1CCCCCC1 | ? | 13% | -2%[46.1 µM] | -7% | 13% | / | -5% | / |
| COC(=O)Cn1c(C)nc([N+](=O)[O-])c1Br | ? | 43% | ? | / | -29% | / | 2% | / |
| Cc1oc(-c2ccccc2)nc1CS(=O)CC(=O)O (stereo not drawn) | / | 8% | / | -4% | -3% | -3% | 11% | -1.4% |
| S=C(Nc1ccc(OCc2ccccc2)cc1)Nc1cccc(Cl)c1Cl | -25% | 1% | ? | ? | -16% | ? | 22% | -4.8% |
| COc1ccc(CC(=O)N/N=C/c2sccc2C)cc1 | 23% | -12% | 22% | -8% | 0% | / | -3% | / |
| CN(C)CC#CCOCCOCCC#N | ? | 3% | 1% | -5% | 10% | 11% | 3% | 6.1% |
| COCCCN(C(=S)Nc1cc(C)cc(C)c1)C(C)c1ccncc1 (stereo not drawn) | ? | 12% | 7% | -9% | 30%[activator] | 10% | 1% | 0.4% |
| COc1cc(OC)nc(NC(=O)CSc2nc3ccccc3[nH]2)n1 | -14% | -3% | 0% | -6% | / | -15% | -5% | 1.3% |
| COc1ccc(C(O)(CCC(C)C)C(CN2CCOCC2)c2ccccc2)cc1 (stereo not drawn) | / | -1% | / | 1% | ? | / | -4% | / |
| CCOC(=O)c1ccccc1NC(=O)CSc1nc2ccccc2o1 | 1% | -2% | 0% | -12% | 8% | 17% | 10% | -5.5% |
| COc1cc(C)c(NC(=O)C(=S)NCc2ccccc2)cc1C | 11%[46.1 µM] | 2% | -10% | -1% | -12% | / | 2% | / |
| Cc1cnc(CN(C)C(=O)CC2C(=O)NCCN2CCCc2ccccc2)[nH]1 (stereo not drawn) | -1% | -1% | 11% | 2% | -13% | / | ? | / |
| Nc1ccc(N2CCCCCC2)cc1 | 3% | / | / | 3% | / | 32µM* | -6% | -8.6% |
| C=CCNc1ccc(N2C(=O)CCCC2=O)cc1[N+](=O)[O-] | / | 3% | / | 5% | -14% | / | 1% | / |
| COc1ccc(-c2nnc(-c3ccc(F)cc3)o2)cc1 | -2% | -17% | 2% | -2% | 25% | / | -2% | / |
| Cc1cc(O)ccc1Nc1nc(-c2cccs2)cs1 | ? | -27% | ? | / | -53% | / | -2% | / |
| COc1cc(OC)cc(C(=O)N[C@H](C(=O)Nc2nc(-c3ccc(F)c(F)c3)cs2)C(C)C)c1 | ? | 19% | 3% | / | 0% | / | -1% | / |
| Cc1ccn2c(C(=O)N/N=C/c3ccc(Cl)cc3)c(C)nc2c1 | / | -5% | / | 1% | 2% | / | 0% | / |
| Cc1ccc(-n2nc(C)cc2Nc2ncc(Cl)cc2Cl)cc1 | 11% | / | -12% | -32% | ? | 7% | -85% | -11% |
| Cc1ccc(OCC(=O)NN=C2c3ccccc3-c3ccccc32)cc1 | ? | -5% | -11% | 2% | 3% | ? | -4% | -0.3% |
| Cc1ccc2nc(Nc3cccc(C(F)(F)F)c3)c3nnnn3c2c1 | / | / | 25%[46.1 µM] | / | -18% | -3% | / | 0.3% |
| CC(=O)N1c2ccccc2CC1C(=O)N1CCN(c2cccc(Cl)c2)CC1 (stereo not drawn) | / | / | -14%[46.1 µM] | / | -21% | -6% | / | 1.0% |
| CCC/C(C)=C/c1ccc(CC)cn1 | 0%[46.1 µM] | 6% | 21% | 2% | 26% | / | 0% | / |
| Cc1ccc(OCCNC(=O)c2ccccc2O)cc1 | 28% | ? | 25% | -68% | 7% | / | -15% | / |
| CC1CCN(C(=O)CSc2nnc(-c3cccnc3)n2C2CCCCC2)CC1 | 8% | 1% | 3% | -6% | -4% | -7% | 4% | 3.5% |
| Cc1cc(N2CCCC(C(=O)Nc3ccc4c(c3)CCC4)C2)n2ncnc2n1 (stereo not drawn) | -15% | 20% | -8% | 2% | ? | ? | 3% | 7.5% |
| CC(C)(C)c1cc(NC(=O)CSc2nnc(N)s2)n(-c2ccccc2)n1 | / | 1% | -5% | -7% | -18% | 2% | 23% | -0.9% |
| COc1ccccc1Nc1nn2c(=O)c3ccc(C(=O)NC(C)c4ccccc4)cc3nc2s1 (stereo not drawn) | / | / | -12%[46.1 µM] | / | -10% | ? | / | -3.5% |
| CCOC(=O)Cn1c(=N)n(CCOc2ccc(F)cc2)c2ccccc21 | 27% | -1% | 15% | -2% | -19% | / | 0% | / |
| CCc1ccccc1NC(=O)c1cc(-c2ccc3c(c2)OCO3)on1 | 5%&0%[46.1 µM] | 11% | 13% | -2% | 44%&14%[activator] | -1% | 2% | -2.9% |
| CN1N=C(/C=C/c2ccccc2)CCC1=O | ? | -21% | 15% | / | 41%[activator] | / | -6% | / |
| CC(C)OCCCNC(=O)c1ccccc1NC(=O)C1=CSCCO1 | / | 3% | / | -21% | -15% | / | 3% | / |
| COc1ccc(/C=C(\NC(=O)c2ccc(C)cc2)C(=O)NCC2CCCO2)cc1 (stereo not drawn) | 14% | 16% | -1% | / | -16% | / | 0% | / |
| Cc1ccc(S(=O)(=O)N(CC(=O)N2CCC(C)CC2)Cc2ccccc2F)cc1 | ? | ? | ? | -1% | 14% | 0% | -6% | -0.8% |
| CCNC1CCC(Nc2ccnc3cc(Cl)ccc23)CC1 (stereo not drawn) | ? | -6% | / | / | -22% | / | / | / |
| CN(CCC1CCOCC1)Cc1cn[nH]c1-c1ccc(-c2ccccc2)cc1 | / | -10% | / | 0% | 29% | / | -1% | / |
| O=c1c2c3c(sc2nc(NCCO)n1CCc1ccccc1)CCCCC3 | ? | 8% | ? | 3% | -19% | 23% | -37% | -11% |

Some values from the entries so far.
Reading for O=c1c2c3c(sc2nc(NCCO)n1CCc1ccccc1)CCCCC3 in SARS PLP yeast: -37%
Reading for CC(C)OCCCNC(=O)c1ccccc1NC(=O)C1=CSCCO1 in NS1 function inh: -21%

Compound activity (PubChem BioAssay)
